# Bioassay records as filed in PubChem.
# Ba CapD inh: inhibitors of Bacillus anthracis CapD enzyme; purified CapD enzyme, fluorescence intensity read-out; hits give low values; some hits fall short of the stated cut; z-score (test concentration not listed); 140,000 tested, 0.23% active;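 active = z-score under -4 in either of two replicates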;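 also: stock transfer was 100 nL into about 40 µL; score is relative to mean and spread of the plate; one replicate is shown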
# AID504770: E. coli YBA685 growth inhibition, screen for V. cholerae RctB inhibitors. E. coli YBA685 rctB-dependent plasmid, OD600 growth, 3 h; hits give low values. z-score (concentration not given with the values). 130,000 tested, 0.27% active;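 active = z-score under -2 on both plates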;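 also: wells of about 30 µL received 100 nL stock; score is relative to mean and SD of the test wells; the first replicate is given; strong numbers were not always called active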
# The depositor's hits bear a star; / = no result given.
# A first look (four entries):
SMILES,Ba CapD inh,AID504770
CC(NC(=O)C1CCCN1S(=O)(=O)c1ccccc1)c1ccccc1 (configuration not stated),0.535,0.1
COc1ccc(CNC(=O)c2ccc(C)c(C)c2)cc1,-0.53,1.6
CNC(=O)CSc1nc2ccc(C)cc2[nH]1,/,-0.45
COc1ccc(-c2onc(C)c2-c2ccc3c(c2)OCCO3)c(O)c1,/,-0.4

# Main list (from the top)
SMILES,Ba CapD inh,AID504770
CC(NC(=O)C1CCCN1S(=O)(=O)c1ccccc1)c1ccccc1 (configuration not stated),0.535,0.1
COc1ccc(CNC(=O)c2ccc(C)c(C)c2)cc1,-0.53,1.6
CNC(=O)CSc1nc2ccc(C)cc2[nH]1,/,-0.45
COc1ccc(-c2onc(C)c2-c2ccc3c(c2)OCCO3)c(O)c1,/,-0.4
C=C(C)Cn1c(C2CC(=O)N(c3cccc(SC)c3)C2)nc2ccccc21 (configuration not stated),/,0.9
O=C(CC1COc2ccccc2O1)NC1CCCCC1 (configuration not stated),-0.38,0.25
O=C(COC(=O)COc1ccc(Cl)cc1)NC1CC1,/,0.1
N#CCC(=O)c1ccsc1,0.02,-0.85
CC1=NN(C(=O)c2cccc(Br)c2)C(O)(C(F)(F)F)C1 (configuration not stated),-0.355,/
Clc1ccccc1C1Nc2cccc3cccc(c23)N1,0.985,/
O=C(Cn1cc(S(=O)(=O)Cc2ccccc2)c2ccccc21)Nc1nccs1,/,-1.3
CC1(C)Cc2c(c(-c3ccccc3)nc(N3CCCC3)c2C(N)=O)CO1,2.38,-0.25
C=CCn1c(CSc2nc3ccccc3s2)nnc1SCC(=O)NCc1ccco1,0.03,0
COc1cccc(C(CC(=O)Nc2cccc3ccccc23)NC(=O)c2ccccc2)c1 (configuration not stated),-0.125,1.05
CC1Cc2cc(C(=O)Cn3nnc4ccccc4c3=O)ccc2N1S(C)(=O)=O (configuration not stated),/,-0.6
NC(=O)c1ccsc1N,0.2,-0.25
O=C(OCC#Cc1ccccc1)N1CCN(c2ccccc2Cl)CC1,-0.56,/
O=C(OCC(=O)N1CCCCC1)c1sc2ccccc2c1Cl,0.205,0.5
Cc1csc(SCC(=O)Nc2cc(C(C)(C)C)no2)n1,/,0.2
N#CCC(=O)N1CCCCCC1,/,0.65
COc1ccc(-c2cc(C(=O)NN)n(-c3ccccc3)n2)cc1,/,0.35
Cc1c(C(=O)O)sc2ncn(CC(=O)N3CCCCC3C)c(=O)c12 (configuration not stated),-0.55,/
CN(C)S(=O)(=O)c1ccc(C(=O)NN2CC(=O)NC2=O)cc1,/,0.1
COc1ccc(N2C(=O)CSC2c2coc3ccccc3c2=O)cc1Cl (configuration not stated),-0.305,/
CC(C)NC(=O)Cn1cc(C(=O)C(C)C)c2ccccc21,/,1.65
Cc1ccc(S(=O)(=O)c2ccccc2)cc1S,-0.19,0.55
C/C(=N\Oc1ccc2c(C(F)(F)F)cc(C(F)(F)F)nc2n1)c1ccccc1,0.6,/
O=C1/C(=C/c2c(N3CCCCC3)nc3ccccn3c2=O)SC(=S)N1Cc1ccco1,0.43,0.5
CCOC(=O)C1CCN(c2nc(C)nc3sc4c(c23)CCCC4)CC1,0.03,/
CN(C)CCCNc1nc(-c2ccccc2)c2c(c1C#N)CC(C)(C)OC2,15.8,-0.5

# Quoted at random: seven compounds from above
SMILES,Ba CapD inh,AID504770
CCOC(=O)C1CCN(c2nc(C)nc3sc4c(c23)CCCC4)CC1,0.03,/
CN(C)S(=O)(=O)c1ccc(C(=O)NN2CC(=O)NC2=O)cc1,/,0.1
Cc1csc(SCC(=O)Nc2cc(C(C)(C)C)no2)n1,/,0.2
C/C(=N\Oc1ccc2c(C(F)(F)F)cc(C(F)(F)F)nc2n1)c1ccccc1,0.6,/
CN(C)CCCNc1nc(-c2ccccc2)c2c(c1C#N)CC(C)(C)OC2,15.8,-0.5
Cc1ccc(S(=O)(=O)c2ccccc2)cc1S,-0.19,0.55
O=C(OCC(=O)N1CCCCC1)c1sc2ccccc2c1Cl,0.205,0.5

# (list continues)
SMILES,Ba CapD inh,AID504770
O=C1c2ccccc2C(=O)c2ccccc21,/,-0.35
CCn1c(CSc2nc3ccccc3s2)nnc1SCC(=O)OC(C)(C)C,/,1.75
CCCc1nnc2n1N=C(c1ccc(C)cc1)CS2,-0.325,/
CC(=O)OCC(=O)c1cc(Cl)sc1Cl,0.33,/
Cc1cc(C)n(-c2ccc(C(=O)OCC(=O)C(C)(C)C)cc2)n1,/,-0.4
Nc1ncc(N=Nc2cc(C(=O)O)ccc2Cl)s1,/,-0.35
Cc1ccc(C)c(NS(=O)(=O)c2ccc3c(c2)c(=O)n(C)c(=O)n3C)c1,-0.17,-0.75
Cc1ccc(C(=O)NC(=O)CSc2nnnn2-c2ccccc2)cc1,0.08,-1.25
COC(=O)c1sccc1-c1ccc(-c2ccn(S(=O)(=O)c3ccc(Cl)cc3)n2)o1,11.4,0.05
CCOC(=O)N1CC=C2C(C#N)=C(N)C(C#N)(C#N)C(c3cccs3)C2C1 (configuration not stated),2.4,/
O=C1C=CC(Br)=C/C1=C\N(O)c1ccccc1,-1.18,-1
CS(=O)c1nc(-c2cccs2)cc(-c2ccccc2)c1C#N (configuration not stated),/,0.3
O/N=C/c1cn(CC(O)COc2cccc3cccnc23)c2ccccc12 (configuration not stated),/,0.4
c1csc(NC2=NCCC2)n1,/,0.2
CCOC(=O)c1sc(/N=C/c2c(C)[nH]n(-c3ccc(C)cc3)c2=O)c(C#N)c1C,0.21,/

# Single records, as listed above. Values in the order: Ba CapD inh | AID504770
# Cc1ccc(C(=O)NC(=O)CSc2nnnn2-c2ccccc2)cc1 is listed as 0.08 | -1.25
# COC(=O)c1sccc1-c1ccc(-c2ccn(S(=O)(=O)c3ccc(Cl)cc3)n2)o1 is listed as 11.4 | 0.05
# CCOC(=O)c1sc(/N=C/c2c(C)[nH]n(-c3ccc(C)cc3)c2=O)c(C#N)c1C is listed as 0.21 | /
# CCOC(=O)N1CC=C2C(C#N)=C(N)C(C#N)(C#N)C(c3cccs3)C2C1 (configuration not stated) is listed as 2.4 | /
# Cc1ccc(C)c(NS(=O)(=O)c2ccc3c(c2)c(=O)n(C)c(=O)n3C)c1 is listed as -0.17 | -0.75

# The list goes on.
SMILES,Ba CapD inh,AID504770
O=C(Nc1ccc(F)cc1)C(NCc1ccco1)c1ccccc1 (configuration not stated),/,0.4
Nc1nc(SCC(=O)Nc2ccccc2C(=O)Nc2ccccc2)n[nH]1,/,-0.15
COc1ccc(COC(=O)C2=C(C)NC3=C(C(=O)CC(C)(C)C3)C2c2cc(Cl)c(O)c(OC)c2)cc1 (configuration not stated),9.34,/
CCn1c(C)c(CCC(=O)NCc2ccccn2)c(=O)n2nc(-c3ccccc3OC)cc12,51.5,-0.1
Clc1ccc(N=Cc2ccn(-c3ccccc3)n2)cc1,0.345,0.7
COc1cc(C(=O)NCCc2ccccc2)nc(OC)n1,-0.01,/
Nc1ccc2nc(SCC(=O)N3c4ccccc4CCc4ccccc43)sc2c1,-0.79,/
Cn1cnnc1SCC(=O)c1ccc(C2CCCCC2)cc1,0.525,0.15
S=C(Nc1ccccc1)N1N=C(c2cccs2)CC1c1cccs1 (configuration not stated),-0.075,-0.1
COc1ccc(CCNC(=O)c2cc(-c3ccccc3O)no2)cc1OC,0.27,0.6
COC(=O)c1ccccc1S(=O)(=O)NC1C2(C)CCC(C2)C1(C)C (configuration not stated),0.93,0
O=C(O)c1ccc2c3c(ncnc13)-c1ccccc1C2=O,/,0.05
Cc1nc(-c2ccccn2)nc(N(C)c2ccccc2)c1Cl,-0.365,1.05
CN(C(=O)CN1C(=O)c2cc(Cl)c(Cl)cc2C1=O)C1CCS(=O)(=O)C1 (configuration not stated),/,0.05
CC1CC(=O)N(Cc2ccc(F)cc2)c2ccccc2S1(=O)=O (configuration not stated),-0.935,2.2
N#Cc1ccccc1C(C#N)c1ccccc1 (configuration not stated),-0.635,0.5
CCOC(=O)c1cnc(SC)nc1N1CCN(c2ccccc2F)CC1,-0.445,/
N#Cc1cccc(S(=O)(=O)NC2CC2)c1,/,0
OCCN(Cc1ccccc1)CC1CC2C=CC1C2 (configuration not stated),0.005,-0.8
COc1ccc2[nH]c(=O)c(CN(Cc3ccc4c(c3)OCO4)Cc3nnnn3CCc3ccccc3)cc2c1,/,2.4
N#CC1=C(N)n2c(s/c(=C\c3ccccc3)c2=O)=C(C#N)C1c1ccccc1 (configuration not stated),0.52,/
CCSc1nc2ccc(Nc3nc(N4CCOCC4)nc(N4CCOCC4)n3)cc2s1,0.845,/
COc1cccc(NC(=O)c2oc3ccccc3c2C)c1,/,0.45
CC(=O)Nc1ccc(NC(=O)C2CC(=O)N(Cc3ccccc3)C2)cc1 (configuration not stated),-0.29,2.5
COc1ccc(Cc2nc(C(=O)Nc3ccc(OC)cc3)cs2)cc1,-0.7,/
CCCn1c(O)c(C=Nc2c(C)n(C)n(-c3ccccc3)c2=O)c(=O)[nH]c1=S,/,-0.65
COc1ccc(C2C(C(=O)OC(C)C)=C(C)N=c3s/c(=C/c4cn(C)c5ccccc45)c(=O)n32)cc1 (configuration not stated),-1.34,/
C=C1N(c2ccc(Cl)cc2)C(=O)OC1(C)C,-0.3,-0.75
CC(=O)O[C@]1(C(C)=O)CCC2C3C[C@H](C)C4=CC(=O)CC[C@]4(C)C3CC[C@@]21C (some centres not stated),57.4,0.15
Cc1ccc(-c2nn(CO)c(=S)o2)cc1,/,-0.25
O=c1c2ccccc2c(-c2n[nH]c(=S)o2)nn1Cc1ccccc1,/,-0.45
O=C1NC2=C(C(=O)c3ccccc32)C(c2ccccc2)S1 (configuration not stated),0.405,0.9
CCCCCn1c(SCC(=O)OCC)nc2cc(C(=O)N3CCC(C(N)=O)CC3)ccc2c1=O,0.315,0.6
CC1CN(S(=O)(=O)c2ccc(Cl)cc2)CCN1S(=O)(=O)c1ccc(Cl)cc1 (configuration not stated),0.115,0.65
N#Cc1ccsc1NC(=O)CSc1ncc(C(F)(F)F)cc1Cl,-0.45,/
C=CCn1cc(/C=c2\sc3n(c2=O)C(c2ccc4c(c2)OCO4)C(C(=O)OCC)=C(C)N=3)c2ccccc21 (configuration not stated),-0.125,/
O=C(CCc1ccccc1)Nc1ccc(NC(=O)c2ccco2)nc1,/,-0.85
COc1ccc(/C=C2/SC(=Nc3ccccc3)NC2=O)c(OC)c1OC,-0.88,/
Cc1cc(C(=O)CS(=O)(=O)c2ccccc2)cc(C)c1OC(=O)N(C)C,0.195,/
CC(CCc1ccccc1)NCc1ccc(C(=O)O)s1 (configuration not stated),0,2.15
CCCc1[nH]c(=O)cc2cc(OC)c(OC)cc12,0.53,-0.95
Cn1c(N=Nc2c(O)[nH]c(=O)[nH]c2=O)nc2c1c(=O)n(Cc1ccc(Cl)cc1)c(=O)n2C,/,-0.15
Cc1cccc(C(=O)Nc2nc(-c3ccc(F)cc3)cs2)c1,-0.485,-1.25
CC(C)(C)C(=O)COC(=O)c1ccc(C#N)cc1,/,0.15
Cc1cccc(OCOc2cccc(C)c2)c1,0.075,-0.75
O=C(Nc1sc2c(c1C(=O)Nc1ccc(Br)cc1)CCCCC2)c1cccnc1,0.11,/
N=c1c2cnn(-c3ccccc3)c2ncn1/N=C/c1ccc(Cl)cc1,5.34,0.25
COC(=O)C1CCCN1S(=O)(=O)c1ccccc1N (configuration not stated),/,-0.9
NS(=O)(=O)c1ccc(CCNC(=O)CC(c2ccccc2)c2ccccc2)cc1,0.01,-0.3
Clc1nc2sccn2c1C=NCc1cccnc1,-0.895,0.2
Cc1ccc(-c2csc3ncnc(N4CCc5ccccc5C4)c23)cc1,0.435,/
Cc1noc(N)c1C#N,-0.335,-1.65
CCc1ccc(N2COc3ccc(OC)cc3C2)cc1,-1.19,1.05
CCOc1ccc2nc(SCC(=O)c3cc(C)n(C(C)COC)c3C)sc2c1 (configuration not stated),/,0.25
CC(=O)OC[C@H]1O[C@@H](NC(=S)NN)[C@H](OC(C)=O)[C@@H](OC(C)=O)[C@@H]1OC(C)=O,0.57,1.75
COCc1[nH]c(=S)c(C#N)cc1C(=O)OC,5.75,-0.4
O=C(NC(=S)Nc1cccc(C(F)(F)F)c1)c1c(F)cccc1F,-0.57,/
CCOC(=O)c1ccc(NC(=O)CC2C(=O)OCC3CCCCN32)cc1 (configuration not stated),/,0.7
Cc1cc(C(F)(F)F)c(C(=O)O)cn1,17.4,-0.8
c1ccc(C2OCC3OC(c4ccccc4)OC3CO2)cc1 (configuration not stated),1.14,1.55
# The listing continues.
SMILES,Ba CapD inh,AID504770
C/C(=N\NC1=NCCCCC1)c1ccccc1,/,-0.25
CC(C)C(=O)NC(C)c1nc(-c2ccccc2)no1 (configuration not stated),-0.245,-0.1
COc1ccc(OCCC(=O)O)cc1,-0.55,-0.7
N#CC1C2=C(CCCC2)SC1NC(=O)c1cc2ccccc2oc1=O (configuration not stated),0.1,-0.1
Cc1noc(C)c1-c1nc(-c2c(Cl)cccc2Cl)no1,9.62,-0.5
CCOc1ccccc1C(=O)OCCN1CCCC1=O,0.095,-0.35
COc1cc(NC(=O)c2cc([N+](=O)[O-])ccc2N2CCN(C)CC2)c2ncccc2c1,-0.68,/
O=C(NC1CCCCCC1)c1ccc(Cl)c(S(=O)(=O)N2CCOCC2)c1,/,-0.7
Cn1c(Cc2nn(C)c(=O)c3ccccc23)nnc1SCc1ccc(Cl)cc1Cl,1.61,-0.25
CCCCCCCCCCCOCC1O[C@@H]2OC(C)(C)O[C@@H]2[C@H]2OC(C)(C)O[C@@H]12 (some centres not stated),-0.26,/
C/C(=N\NC(=O)c1ccoc1C)c1ccc(Cl)s1,-0.06,-0.15
CCOc1ccc2c(=O)c(Oc3ccccc3Br)c(C(F)(F)F)oc2c1,-0.275,/
CCc1cc2c(=O)c(Oc3ccccc3)c(C(F)(F)F)oc2cc1O,-0.18,-0.6
COc1ccccc1NC(=O)c1c(C)oc2c1CCCC2,0.29,0.05
c1ccc(Nc2nc(Nc3ccccc3)nc(N3CCc4ccccc4C3)n2)cc1,-0.905,0.5
CCOC(=O)c1ccccc1NC(=O)NCc1noc2ccc(C)cc12,13.3,-0.8
CSc1nc(Sc2cccc(C(F)(F)F)c2)c2sccc2n1,-0.11,/
Cc1ccc(C)c(-n2c(CNC(=O)c3ccc(S(=O)(=O)N(C)C)cc3)nnc2SCC(=O)N2CCc3ccccc32)c1,-0.44,/
